HTT promoter inh: inhibits huntingtin promoter activity. HEK293 HTT promoter firefly luciferase reporter (activity 0% = vehicle and -100% = no light), 24 h. Potency, µM (titrated, usually from 57.5 µM), inactives show at the highest dose activity change, negative = inhibition, actives largely listed as inhibitors. 0.93% of 48,000 active. AID 1508623; active = well fitted inhibition curve with a large enough effect; inconclusive = small, poorly fitted or top-dose-only effect; inactive = no such curve, though single readings can be large or run the other way; note: nearly all actives have a fitted effect of over 50% in size
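Firefly luciferase signal from promoter-reporter HEK293 cells was scaled between vehicle (0%) and zero RLU (-100%). Compounds were tested at final concentrations of up to 57.5 uM over 24 h at 37 degrees C. PTC124 at 50 uM final served as control inhibitor.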
PMP22 txn prim: modulates PMP22 transcription in S16 Schwann cells. Potency, µM (highest dose often 57.5 µM), without a hit: top-dose activity change, negative = inhibition, usual class: inhibitors. 2% of 43,000 active. S16 Pmp22-F2sN Schwann cells (luciferase reporters placed in the Pmp22 gene), FLuc/NLuc coincidence luminescence, 24 h. AID 1508649; active = clear falling dose curves in both reporters; inconclusive = both reporters move, but less clearly or upward; inactive = either reporter flat; the % is the NLuc reporter signal; note: % is set by controls: 0 for no effect and ±100 for the full control effect; some results filed as inactive show a strong effect at the top dose
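Reporter cells (S16 Pmp22-F2sN, 500–1,000 per well) exposed to compounds for 24 h, 37C, 5% CO2; lysis with FLuc read after 10 min, then Stop&Glo and NLuc read after 10 min.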
The depositor's hits bear a star; ? = inconclusive; . = no result given; & = joins results of further samples; [ ] = remark or other dose. Potency is the fitted concentration of half-maximal effect. An unsorted share of the library (roughly 2.4% active in at least one column).

No.	mol	HTT promoter inh	PMP22 txn prim
1	CCOC(=O)c1c(C)[nH]c(CCC(=O)NCc2ccc(OC)cc2OC)c1C	-23.9%	-6.5%
2	CCOC(=O)C1=C(C)NC(=O)NC1c1cn(-c2ccccc2)nc1-c1ccc(OCC)cc1 (stereo not given)	-10.9%	1.8%
3	Cc1ccc(CCNc2ncnc3onc(-c4ccc(Cl)cc4)c23)cc1	?	?
4	CC1CCCCN1c1nnc(NC(=O)Nc2ccccc2F)s1 (stereo not given)	?	-12.1%
5	CC1=C(C(=O)NCc2ccccc2F)C2(CCCCC2)OC1=O	-10.7%	2.1%
6	CCCCc1nn2c(=O)cc(COC(=O)c3ccccc3NC(=O)c3ccccc3OC)nc2s1	-21.6%	11.8%
7	CCC(C)NC(=O)Cn1ccc2cc(S(=O)(=O)N3CCCCC3)ccc21 (stereo not given)	-14.9%	2.6%
8	CCOC(=O)c1ccc(NC(=O)c2c(NCc3cc(OC)ccc3OC)sc3c2CCC3)cc1	1.7%	?
9	Cc1ccc(N(CC(=O)Nc2cc(C)ccc2C)S(=O)(=O)c2c(C)noc2C)cc1	-24.3%	-26.1%
10	CCCc1nc2sc3c(N4CCCCC4)ncnc3c2c2c1CCCC2	-11.7%	-23.0%
11	Cc1cc(C)c(S(=O)(=O)Nc2cc(Cl)c3oc4c(c3c2)C(=O)CCC4)cc1C	?	?
12	CN(C)CCNC(=O)c1ccc2c(c1)N(Cc1c(F)cccc1Cl)C(=O)c1ccccc1S2	-29.8%	?
13	NC1[C@H]2CN(c3nc4c(cc3F)c(=O)c(C(=O)O)cn4-c3ccc(F)cc3F)C[C@@H]12 (stereo not given in full)	68.8%[activator]	.
14	Cc1ccc(S(=O)(=O)c2cn(Cc3ccccc3F)c3cc4c(cc3c2=O)OCO4)cc1	-16.0%	-19.2%
15	COCCn1c(-c2ccccc2)c(C)n2c3c(=O)n(C)c(=O)n(C)c3nc12	-17.7%	?
16	COc1ccc(N2CCN(C(=O)CN(C)S(=O)(=O)c3cccs3)CC2)cc1	-10.5%	-16.1%
17	Cc1cccn2c(=O)c(C(=O)NCCCN3CCCCC3C)c(O)nc12 (stereo not given)	-13.8%	-1.4%
18	COc1cc(OC)cc(C(=O)NCCc2csc(-c3ccc(C(F)(F)F)cc3)n2)c1	?	-2.4%
19	CCOC(=O)CC(NC(=O)c1cc2cc(Cl)ccc2oc1=O)c1ccc(C)cc1 (stereo not given)	-7.9%	-6.7%
20	COC(=O)c1ccc(NC(=O)C(C)Sc2nc(=O)cc(N)n2CCc2ccccc2)cc1 (stereo not given)	-17.8%	10.1%
21	Cc1cccc(Cn2c(CNS(=O)(=O)c3ccc(C(C)C)cc3)nc3cccnc32)c1	-23.4%	-12.4%
22	COc1ccccc1NC(=O)COC(=O)CC(C)(C)CC1=NS(=O)(=O)c2ccccc2N1	?	?
23	CCCNS(=O)(=O)c1cc(-c2nnc3c4ccccc4c(C)nn23)ccc1OC	7.3%	-24.8%
24	CCOc1ccc(NC(=O)c2oc3ccccc3c2NC(=O)C2CCCCC2)cc1	-11.9%	-2.4%
25	O=C(Nc1ccc(NC(=O)c2cccs2)cc1)c1cccc(Br)c1	21.9%	?
26	Cc1nc2c(-c3ccccc3)c(C)[nH]n2c(=O)c1Cc1ccc(C(C)C)cc1	?	?
27	CN(Cc1cc(Br)cc(Br)c1N)C1CCCCC1	1.2%&-8.7%	.
28	COc1cc(OC)cc(C(=O)Nc2ccc3c(c2)OCCO3)c1	50.8%[activator]	-4.7%
29	Cc1cc(O)c(C(c2cccc(Cl)c2)N2CCN(c3ccccc3)CC2)c(=O)n1Cc1ccco1 (stereo not given)	-0.8%	?
30	CCN1CCC(N(Cc2cccc(OC)c2)C(=O)Nc2ccc(C)cc2Cl)CC1	-10.9%	-8.6%
31	Cc1ccc(Cn2c(SCc3ccc(C(=O)N4CCCCCC4)cc3)nc3ccncc32)cc1	31.6µM*	?
32	CC(C)(C)C1CCc2c(sc(NC(=O)c3ccncc3)c2C(=O)Nc2ccccc2Cl)C1 (stereo not given)	1.1%	2.1%
33	CCC(C(=O)O)n1ccc2cc(S(=O)(=O)N3CCCCC3)ccc21 (stereo not given)	-10.7%	5.1%
34	Cc1c(C(=O)N2CCC(C)CC2)c(S(=O)(=O)N(Cc2ccccc2)C(C)(C)C)c(C)n1C	?	?
35	COc1ccccc1CNC(=O)C(=O)NCC(c1ccco1)S(=O)(=O)c1ccc(C)cc1 (stereo not given)	?	?
36	COc1cccc(Nc2sc(C(=O)c3ccc4c(c3)OCO4)c(N)c2S(=O)(=O)c2ccccc2)c1	-28.2%	-17.8%
37	O=C(Cn1c(=O)n(-c2ccccc2Cl)c(=O)c2sc3ccccc3c21)N1CCCC1	-13.1%	-0.6%
38	CCOC(=O)c1cc(-c2ccc(C)cc2)n(CC(=O)Nc2cc(C)ccc2C)c1C	-6.9%	27.0%
39	COc1ccc(N2CCN(C(=O)C3CCN(Cc4nc(-c5ccc(Cl)cc5)oc4C)CC3)CC2)cc1	-27.6%	-32.4%
40	Cc1ccn2c(=O)cc(COc3ccc(NC(=O)COc4ccc(C)c(C)c4)cc3)nc2c1	-4.5%	-1.8%
41	Fc1ccc(C2=CC(c3ccc(F)cc3)n3c(nc4ccccc43)N2)cc1 (stereo not given)	46.2%[activator]	?
42	O=S1(=O)c2ccccc2N(Cc2cccc(Cl)c2)c2ccccc21	-25.4%	?
43	Cc1cccc(CCNC(=O)c2ccc(CSCc3cccc(Cl)c3)o2)c1	-13.1%	-5.4%
44	Cc1cccc(N(C)C(=O)CCNS(=O)(=O)c2ccc3c(c2)CCN3C(=O)C2CC2)c1	-16.9%	?
45	COc1ccccc1CNC(=O)C(=O)NCC(c1ccco1)S(=O)(=O)c1cccs1 (stereo not given)	-17.1%	-16.0%
46	COc1ccc(OC)c(NC(=O)CCc2c(C)nc3c(c(C)nn3C(C)(C)C)c2C)c1	-19.9%	-14.1%
47	CN1CCCN(C(=O)c2cccc(-c3ccc(C=C4C(=O)Nc5ccc(Cl)cc54)o3)c2)CC1	?	.
48	Cc1c(Cl)cccc1NC(=O)N1CCOc2ccccc21	11.6%	-18.4%
49	CCCCCSc1nnc2c(n1)OC(c1ccc(C)s1)N(C(C)=O)c1ccccc1-2 (stereo not given)	?	?
50	CCN(Cc1ccccc1)S(=O)(=O)c1ccc2c(c1)CCCN2C(C)=O	?	-10.5%
51	CCOc1ccc(NC(=O)Cn2c(=O)n(-c3cccc(OC)c3)c(=O)c3c4c(sc32)CCCC4)cc1	0.0%	-20.3%
52	CCOc1ccccc1CNC(=O)c1ccc(N2Cc3ccccc3Oc3ncccc32)s1	-31.7%	?
53	O=C(CSc1nnc(-c2cccs2)o1)Oc1ccc(Cl)cc1	-18.5%	-5.1%
54	CCOC(=O)c1[nH]c(C)c(CCC(=O)NCc2ccc(OCC)cc2)c1C	-7.5%	?
55	C1=CCOCc2cc(ccc2OCCN2CCCC2)Nc2nccc(n2)-c2cccc(c2)OCC1	?	.
56	CCc1cccc(N2C(=O)CSC23C(=O)Nc2ccccc23)c1 (stereo not given)	-31.4%	0.1%
57	CCn1cc(C(=O)N(C)c2cc(C)ccc2C)c2cc(OC)c(OC)cc2c1=O	-11.6%	-28.4%
58	CSCCC(NS(=O)(=O)c1ccc2c(c1)oc(=O)n2C)C(=O)N1CCN(c2ccc(F)cc2)CC1 (stereo not given)	2.9%	-13.8%
59	CCOC(=O)N1CCC(NC(=O)c2cnn(-c3ccccc3)c2C2CCN(C(=O)OC(C)(C)C)CC2)CC1	-2.2%	-6.4%
60	CCCOc1ccc(NC(=O)C(=O)NCCCN2CCOCC2)cc1	?	-27.6%

The list goes on.
No.	mol	HTT promoter inh	PMP22 txn prim
61	COC(=O)c1c(NC(=O)c2cc3nc(-c4ccc(OC)cc4)cc(C(F)(F)F)n3n2)sc2c1CCCC2	-15.6%	-8.4%
62	COc1ccc(NC(=O)CSc2nnc3c(C)cc4ccccc4n23)cc1	-0.7%	-11.7%
63	Cc1cc(C)c(NC(=O)CSc2nc(=O)[nH]c3c2CCCC3)c(C)c1	?	?
64	CCCCCCCCCCCC1=C(O)C(=O)C=C(O)C1=O	-17.7%	.
65	COCCNCCCn1c(C(=O)CF)c(-c2ccc(C)cc2)c2c(N)ncnc21	-5.3%	.
66	COc1ccc(N2CC(NC(=O)/C=C\c3ccccc3)CC2=O)cc1 (stereo not given)	5.9%	16.5%
67	CCc1ccc(N2C(=O)CSC23C(=O)N(Cc2cccc(F)c2)c2ccccc23)cc1 (stereo not given)	?	?
68	COc1cc(OC)c(NC(=O)NCc2ccc3c(c2)CCN3C(=O)c2ccccc2)cc1Cl	-20.3%	?
69	COc1cc(NC(=O)Cn2c(=O)n(Cc3ccccc3)c(=O)c3oc4ccccc4c32)cc(OC)c1	-17.5%	19.5%
70	COc1ccc(Cn2c(CCC(=O)Nc3ccc(C)cc3C)nc3cccnc32)cc1	-22.0%	1.0%
71	COC(=O)c1ccc(C(=O)Nc2ccc(-c3nc4cc(NC(=O)c5ccc(C(=O)OC)cc5)ccc4o3)cc2)cc1	0.0%	0.4%
72	CCn1c(=N)c(C(=O)NCc2ccccc2)cc2c(=O)n3cc(C)ccc3nc21	-6.1%	-1.7%
73	CSc1ccc(CCNC(=O)CN2C(=O)c3cccnc3Oc3ccc(C)cc32)cc1	-2.8%	?
74	COc1ccc(C(=O)Nc2ccc3oc(-c4cccnc4)nc3c2)cc1	?	1.9%
75	CCOc1ccc(N(C)S(=O)(=O)c2ccc3c(c2)C(C)(C)C(=O)N3C)cc1	-10.4%	-25.7%
76	CN(C)c1ccc(C(CNC(=O)c2ccc(C(C)(C)C)cc2)N2CCOCC2)cc1 (stereo not given)	?	-78.8%
77	COc1ccccc1NC(=O)CCCOc1cc(=O)n(C)c2ccccc12	36.6%[activator]	?
78	CCOc1ccc(NC(=O)Cn2nnc(C(=O)Nc3ccc(OCC)cc3)c2N)cc1	23.6%	-11.2%
79	CCc1nn2c(=O)cc(COC(=O)C(c3ccccc3)c3ccccc3)nc2s1	-27.3%	-16.9%
80	CC(C)c1ccc2c(c1)-c1ccccc1S(=O)(=O)N2CC(=O)N1CCCCC1	28.0%	-25.6%
81	CC(C)NC(=O)N1[C@H](c2cccs2)[C@@H](C)C(=O)[C@@H](C)[C@@H]1c1cccs1	-17.2%	-17.3%
82	Cn1c(=O)n(C)c2cc(N3CCCCC3)c(NC(=O)Nc3ccc(Br)cc3)cc21	-19.8%	-28.2%
83	CC1=C(C(=O)N2CCN(c3ccc(Cl)cc3)CC2)C2(CCC(C)CC2)OC1=O (stereo not given)	-20.6%	?
84	CCC1=C(C)CN(C(=O)NCCc2ccc(S(=O)(=O)NC(=O)NC3CCC(C)CC3)cc2)C1=O (stereo not given)	7.6%&-4.2%	.
85	CC1CCCCN1S(=O)(=O)c1cc2c(=O)nc3ccccn3c2cc1Cl (stereo not given)	-2.2%	-1.3%
86	CCOC(=O)c1cccc(NC(=O)N2CCC(CN3CCc4ccccc4C3)CC2)c1	-29.2%	-46.8%
87	COc1cc(-c2cc(OC)c3c(C)oc(C)c3c(=O)c2)ccc1OC(=O)c1ccccc1C	?	?
88	O=C(Cn1ncc2c3ccccc3n(Cc3cccc(Cl)c3)c2c1=O)N1CCCCCC1	?	?
89	COc1cc(OC)c(NC(=O)c2c(C)oc3ncn(C)c(=O)c23)cc1Cl	-6.9%	?
90	Cc1cc(C)c(S(=O)(=O)N2CCN(Cc3nc4ccc(C)cc4o3)CC2)c(C)c1	?	?
91	CCC(=O)Nc1ccccc1-c1nc2ccccc2n(CC(=O)Nc2ccc(C)c(C)c2)c1=O	-8.8%	19.5%
92	O=C(Cn1cc(S(=O)(=O)N2CCCC2)c(S(=O)(=O)N2CCCC2)c1)Nc1cccc(F)c1	-8.8%	-6.1%
93	CC(CNC(=O)CCCn1c(=O)c2cccn2c2ccc(F)cc21)c1ccccc1 (stereo not given)	-11.3%	18.9µM*
94	CCn1c(C)c(C)c2cc(C(=O)NCCc3cc(OC)c(OC)c(OC)c3)ccc21	?	-11.2%
95	CCc1ccc(CNC(=O)C2CCN(C(=O)c3ccc(-n4ccc5ccccc54)s3)CC2)cc1	?	-2.6%
96	COC(=O)c1cc2sccc2n1CC(=O)Nc1ccc(C)cc1C	-14.4%	13.1%

Some of the entries so far, field by field:
[70] COc1ccc(Cn2c(CCC(=O)Nc3ccc(C)cc3C)nc3cccnc32)cc1
  HTT promoter inh: -22.0%
  PMP22 txn prim: 1.0%

[71] COC(=O)c1ccc(C(=O)Nc2ccc(-c3nc4cc(NC(=O)c5ccc(C(=O)OC)cc5)ccc4o3)cc2)cc1
  HTT promoter inh: 0.0%
  PMP22 txn prim: 0.4%

[72] CCn1c(=N)c(C(=O)NCc2ccccc2)cc2c(=O)n3cc(C)ccc3nc21
  HTT promoter inh: -6.1%
  PMP22 txn prim: -1.7%

Assay outcomes: PubChem BioAssay, National Center for Advancing Translational Sciences (NCATS)
